# Biofilm kill mix: mixtures killing C. albicans biofilm | AID 1242 | inhibition, % at 7.6 µM | 120,000 tested, 0.02% active | C. albicans biofilm persisters + clotrimazole, fluorescence viability; primary screen in compound mixtures of four per well;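 active means inhibition above 30.3% in the primary screen of four-compound pools, then above 30% when the compound was retested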;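 further: compounds exposed to preformed 24 h biofilms for 48 h; the number belongs to the whole pool; some results filed as inactive read as strong as hits; inactives centre near 12; 0% = biofilm with clotrimazole alone and 100% = kill control; retested singly at about 60 µM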
#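 System: C. albicans CAF4-2 wild-type biofilms; Medium: RPMI/MOPS medium, pH 7.0; Reagent: Clotrimazole, 50 µg/mL; Times: biofilm formation 24 h, compound exposure 48 h, 37 °C; Detection: 2-h Alamar Blue fluorescence, 535/590 nm excitation/emission; Evaluation: percent inhibition of biofilm viability.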
# * marks the source's active call; other numbers are inactive results. This is a subset; the hit share may differ from the screen's.
item	Structure	Biofilm kill mix
1	COc1cc2c3cc1Oc1cc(ccc1O)C[C@@H]1c4c(cc(OC)c(O)c4Oc4ccc(cc4)C[C@H]3N(C)CC2)CCN1C	12
2	CCCOC(=O)Nc1ccc([As](=O)(O)O)cc1NC(=O)OCCC	10
3	COc1cccc(C(=O)C2CCCN(Cc3cccc4c3OCO4)C2)c1 (stereo not given)	11
4	O=C1NC(=O)N(c2cccc(Cl)c2)C(=O)/C1=C\c1ccc(Sc2nc3ccccc3[nH]2)o1	10
5	Clc1ccccc1CN1CCN(c2cccc3[nH]ccc23)CC1	13
6	C=CCn1c(O)c(/C=N/N2CCCCC2c2cccnc2)c(=O)[nH]c1=S (stereo not given)	13
7	Cc1ncc([N+](=O)[O-])n1CCOc1nonc1N	-2
8	COc1cc2c(cc1OC)[C@@H]1C(=O)c3ccc4c(c3O[C@@H]1CO2)C[C@H](C(C)C)O4	-12
9	COc1ccc(/C=C2/C(=O)N(Cc3ccco3)C(=O)N(C(C)C)C2=O)cc1	12
10	O=Cc1cn(Cc2c(F)cccc2Cl)c2ccccc12	7
11	O=[N+]([O-])c1cc(F)c(N2CCCC2)cc1N1CCNCC1	1
12	COc1ccc(O)c(CN2CCCC(C(=O)c3ccccc3SC)C2)c1 (stereo not given)	1
13	C[C@@]1([C@@H](NP(=O)(c2ccccc2)c2ccccc2)c2ccccc2)C[C@H]1CCO	13
14	Cc1cc(/C=C2\C(=O)NC(=O)N(c3cccc(F)c3)C2=O)c(C)n1-c1cc(C(=O)O)cc(C(=O)O)c1	17
15	O=Cc1cn(Cc2ccc(F)cc2)c2ccccc12	3
16	Cn1cc[n+](C)c1P(=S)(c1ccccc1)c1ccccc1	13
17	Cc1ccccc1-n1c(C)nc2ccccc2c1=O	28
18	O=C(O)CCn1cc(C=C2C(=O)NC(=S)NC2=O)c(-c2cccc(Br)c2)n1	25
19	O=C(O)c1nn(Cc2ccc(Cl)cc2Cl)c2ccccc12	3
20	CC1=CC2/C=C(\C)CCC(O)C(O)/C=C/C(=O)C23C(=O)NC(CC(C)C)C3C1C (stereo not given)	19
21	COC(=O)c1c(C)n(Cc2ccccc2)c2ccc(O)cc12	11
22	CCCCn1c(=O)c(C=Nc2cc([N+](=O)[O-])ccc2OC)c(O)n(CCCCl)c1=O	16
23	CC1(C)CC(=O)C=C(NCCN2CCN(C(=O)Cc3ccc(Cl)cc3)CC2)C1	10
24	O=C(N=Nc1c(O)[nH]c(=O)[nH]c1=O)C1COc2ccccc2O1 (stereo not given)	4
25	CN1CCN(c2ccc(C(F)(F)F)cc2N)CC1	14

item	Structure	Biofilm kill mix
26	CCOP(=O)(OCC)c1cccc(OP(=O)(c2cccc([N+](=O)[O-])c2)c2cccc([N+](=O)[O-])c2)c1	16
27	CCCCn1c(O)c(C(C)=NCc2cccnc2)c(=O)[nH]c1=O	22
28	COc1cccc(C(=O)C2CCCN(Cc3ccccn3)C2)c1 (stereo not given)	11
29	COc1ccc(NC(=O)CN2CC=C(c3ccccc3)CC2)cc1S(=O)(=O)N1CCOCC1	10
30	Cc1ccc2c(c1)C1CN(C)CCC1N2C(=S)Nc1cccnc1 (stereo not given)	12
31	CC1CCCN(C(=O)CN2C3CCC2CC(O)(c2ccc(F)cc2)C3)C1 (stereo not given)	3
32	CCOc1cc(CNC(C)C(O)c2ccccc2)cc(Cl)c1OCC (stereo not given)	9
33	CCCCCCCCCCCCn1ccc(=N)cc1	22
34	CCCc1nc2ccccc2c(=O)n1-c1ccc(O)cc1	14
35	CCOP(=O)(OCC)C1(C(=O)O)CCCC1	12
36	N=c1ccccn1Cc1ccccc1	2
37	CCCn1cc(C(=O)O)cn1	11
38	CC(C)c1oc(=O)cc2c1[C@@H](O)[C@H]1OC(=O)[C@@]3(C)CC[C@@H](O)[C@@]2(C)C13 (stereo not given in full)	8
39	CNCCc1c[nH]c2ccccc12	15
40	NS(=O)(=O)c1ccc(N=Cc2c(O)n(-c3ccccc3)c(=O)[nH]c2=O)cc1	8
41	COc1ccc2ccc(O)c(CN3CC=C(c4ccccc4)CC3)c2c1	19
42	CCCC(=O)c1cc(CP(=O)(OCC)OCC)oc1C	17
43	CC(=O)Nc1ccc(C(=O)OCC(=O)Nc2ccc(Cl)cc2C(=O)c2ccccc2)cc1	-5
44	O=C1/C(=C\c2ccncc2)N2CCC1CC2	16
45	Cc1cc(NC(=O)CCl)no1	-6
46	Cn1c(=O)c2c(ncn2CCCl)n(C)c1=O	22
47	O=C(Cc1cc(=O)[nH]c(=O)[nH]1)N1CCN(CCO)CC1	13
48	Clc1ccc(CNC2CN3CCC2CC3)cc1 (stereo not given)	-3
49	N=C1c2ccccc2CN1c1ncccn1	0
50	CCc1ccc(N2C(=O)NC(=O)/C(=C\C=C\c3ccco3)C2=O)cc1	1

# Single entries from the list.
# no. 34 in Biofilm kill mix → 14
# no. 29 in Biofilm kill mix → 10
# no. 44 in Biofilm kill mix → 16
# no. 40 in Biofilm kill mix → 8
# no. 37 in Biofilm kill mix → 11

# By substructure: those above containing a furan ring, fused or not (four)
item	Structure	Biofilm kill mix
4	O=C1NC(=O)N(c2cccc(Cl)c2)C(=O)/C1=C\c1ccc(Sc2nc3ccccc3[nH]2)o1	10
9	COc1ccc(/C=C2/C(=O)N(Cc3ccco3)C(=O)N(C(C)C)C2=O)cc1	12
42	CCCC(=O)c1cc(CP(=O)(OCC)OCC)oc1C	17
50	CCc1ccc(N2C(=O)NC(=O)/C(=C\C=C\c3ccco3)C2=O)cc1	1

# More entries follow.
item	Structure	Biofilm kill mix
51	O=C1NC(=O)C(=Cc2ccc3ccccc3c2)C(=O)N1	16
52	COc1ccccc1CCNCc1ccc(OC)c(OC)c1OC	9
53	C/C(=N\NC(=O)c1ccccc1O)c1c(O)n(Cc2ccccc2)c(=O)[nH]c1=O	10
54	CC(C)n1c(=O)c(C=Nc2ccc(S(N)(=O)=O)cc2)c(O)n(Cc2ccco2)c1=O	6
55	COc1ccccc1-n1c(O)c(/C=N/N2CCCCC2)c(=O)n(-c2ccccc2OC)c1=S	25
56	C[N+]1=C(/C=C/Nc2ccccc2)C(C)(C)c2ccccc21	17
57	CC1=NN(c2ccccc2)C(=O)C1/C=C1\C(=O)NC(=O)N(c2cc(C)cc(C)c2)C1=O (stereo not given)	11
58	CCC(C)C12CN3CCN(CC(C)(C3)C1O)C2 (stereo not given)	3
59	Cc1ccc(-c2ccc(=O)n(CC(=O)N3CCC4(CC3)OCCO4)n2)cc1	16
60	O=c1c2ccccc2nc(/C=C/c2ccc3c(c2)OCO3)n1-c1ccccc1	15
61	Cc1ccc(NP(=O)(Nc2ccc(C)cc2)Oc2ccccc2)cc1	10
62	O=c1cccc2n1CC1CC2CN(S(=O)(=O)c2ccc(F)cc2)C1 (stereo not given)	2
63	COC(=O)C1C2c3ccccc3C(c3ccccc32)C1C(=O)OC (stereo not given)	7
64	c1cc2c(cc1CCNC1C3CC4CC(C3)CC1C4)OCO2 (stereo not given)	13
65	C/C(=N\N1CCCCCC1)c1c(O)n(-c2ccc(C)cc2)c(=O)[nH]c1=O	15
66	CCOC(=O)C1(CCc2ccccc2)CCN(Cc2ccco2)CC1	6
67	CC1(C)C2SCC(=O)N2CCN1CC(=O)NN (stereo not given)	16
68	Cc1ccc(C)c(NC(=O)CSc2nnc([C@@H](N)Cc3c[nH]c4ccccc34)o2)c1	12
69	O=P(Nc1cccnc1)(Oc1ccccc1)Oc1ccccc1	19
70	CCCNS(=O)(=O)c1ccc(OCC(=O)N2CCN(C)CC2)cc1	15
71	C=CC[N+]1(C)C2CCC1CC(O)C2 (stereo not given)	-10
72	CC(C)c1ccc(N2C(=O)NC(=O)/C(=C/C=C/c3ccco3)C2=O)cc1	10
73	CN(C)C(Cc1ccc(C#N)cc1)C(=O)c1ccccc1 (stereo not given)	12
74	CC(Cl)(Cl)/C(=N/P(=S)(N1CCOCC1)N1CCOCC1)N1CCOCC1	29
75	Cc1cccc(NP(C)(=O)c2nc3c(s2)CCCC3)c1 (stereo not given)	12

# Molecules from the list above with an aryl thioether with sulfur outside any ring (3):
item	Structure	Biofilm kill mix
4	O=C1NC(=O)N(c2cccc(Cl)c2)C(=O)/C1=C\c1ccc(Sc2nc3ccccc3[nH]2)o1	10
12	COc1ccc(O)c(CN2CCCC(C(=O)c3ccccc3SC)C2)c1 (stereo not given)	1
68	Cc1ccc(C)c(NC(=O)CSc2nnc([C@@H](N)Cc3c[nH]c4ccccc34)o2)c1	12

# The results go on.
item	Structure	Biofilm kill mix
76	CCCCCn1c(NC(=O)c2ccco2)c(C(=O)OCC)c2nc3ccccc3nc21	19
77	CC1(C)CN=C(Nc2ccc(F)c(Cl)c2)S1	9
78	Oc1ccc(C2NCc3ccccc3-n3cccc32)cc1Cl (stereo not given)	18
79	Cc1cccc(OP(=O)(Oc2ccccc2)OC(c2ccccc2)C(F)(F)F)c1 (stereo not given)	7
80	N#Cc1c(/N=C/c2ccc(O)cc2O)sc2c1C1CCN2CC1	14
81	O=C1NC(=O)N(CCC2=CCCCC2)C(=O)/C1=C/c1ccc(O)cc1	12
82	O=C(Cc1ccccc1[N+](=O)[O-])N1CCN(Cc2ccc3c(c2)OCO3)CC1	-1
83	COc1ccc(Cc2c(O)[nH]c(=O)[nH]c2=O)c(OC)c1	-1
84	COc1ccc(Cl)cc1C(=O)C1CCCN(Cc2cnc(C)s2)C1 (stereo not given)	8
85	COC(=O)C1=C(N)Oc2cc(C)oc(=O)c2C12C(=O)Nc1ccccc12 (stereo not given)	18
86	CCN1CCN(c2cn[nH]c(=O)c2Cl)CC1	16
87	Cc1nc2ccccc2c(=O)n1-c1ccc(C(=O)O)cc1	18
88	O=C(c1cccc2ccccc12)C1CCCN(Cc2ccon2)C1 (stereo not given)	18
89	CC(C)N(CC#CCC1(O)c2ccccc2-c2ccccc21)C(C)C	-4
90	Nc1nonc1OCCCCOc1nonc1N	13
91	Fc1ccc(C2N3CCCN23)cc1 (stereo not given)	22
92	O=Cc1cn(Cc2cccc(F)c2)c2ccccc12	-10
93	COC(=O)C1=C(C)OC(N)=C(C#N)C12C(=O)Nc1ccccc12 (stereo not given)	10
94	O=C1/C(=C/c2ccncc2)N2CCC1CC2	13
95	CC1CN(c2cc([N+](=O)[O-])ccc2Cl)CC(C)N1 (stereo not given)	10
96	CC(CCc1ccccc1)NCCC#N (stereo not given)	19
97	CN1CCN(Cc2ccc(N)cc2)CC1	29
98	CCCCOc1nc2ccccc2c(=O)n1-c1ccccc1	0
99	CCCC(=O)NC(Oc1ccc(C(C)=O)cc1)C(Cl)(Cl)Cl (stereo not given)	22
100	CC(=O)NC(Cc1ccc(N(CCCl)CCCl)cc1)C(=O)NCC(=O)NCC(=O)O (stereo not given)	19

item	Structure	Biofilm kill mix
101	O=C1NC(=O)N(Cc2ccccc2)C(=O)/C1=C/C=C/c1ccco1	13
102	Cc1ccc(-c2nc3ccccc3c(=O)n2-c2cccnc2)cc1	4
103	CC(Cc1ccccc1Sc1ccccc1)N(C)C (stereo not given)	15
104	COc1cccc(N=Cc2c(O)n(Cc3ccco3)c(=O)[nH]c2=O)c1	-3
105	CCc1c(C)nc(N)nc1N1N=C1SCC(=O)OC	12
106	CC(=O)OC(C)(C)/C=C/C(=O)[C@](C)(O)[C@H]1[C@H](O)C[C@@]2(C)[C@@H]3CC=C4[C@H](C[C@H](O)C(=O)C4(C)C)[C@]3(C)C(=O)C[C@]12C	14
107	O=c1c2ccccc2nc(CSc2ncnc3nc[nH]c23)n1-c1ccccc1Cl	15
108	NCCCN1CCN(c2ccccc2)CC1	1
109	COC(=O)c1ccc(NC(=O)CSc2nc3ccc(N4C(=O)C5C6C=CC(C6)C5C4=O)cc3s2)cc1 (stereo not given)	4
110	CCOc1ccc(C(=O)OC2CC3CCC(C2)N3C)cc1 (stereo not given)	26
111	O=C(COc1ccccc1)Nc1ccc(Cl)cc1C(=O)c1ccccc1	20
112	O=C1/C(=C/c2cccc([N+](=O)[O-])c2)N2CCC1CC2	8
113	CC[N+](CC)(CC#CCO)CC#Cc1ccccc1	18
114	N[C@@H](Cc1cc(Br)c(O)c(Br)c1)C(=O)O	8
115	O=C1OC(c2ccc(Cl)cc2)=N/C1=C\N1CC2CC(C1)c1cccc(=O)n1C2 (stereo not given)	9
116	COc1cc(C(=O)Nc2ccc(Br)cc2C(=O)c2ccccc2Cl)cc(OC)c1OC	29
117	COC(=O)C1C(O)C(C)C(O)C(C)/C=C\C=C(/C)C(=O)Nc2c(C)c(OC(C)=O)c3c(c2O)C(=O)C(C)=C2OCOC(=C23)/C(C)=C/C(C)(O)C(O)C(C)C1O (stereo not given)	0
118	CC(Cc1ccccc1)NCc1ccccc1O (stereo not given)	3
119	C=C1CC[C@@]2(O)[C@H]3Cc4ccc(O)c5c4[C@@]2(CCN3CC2CC2)[C@H]1O5	21
120	CC1C(c2cccs2)=[N+]([O-])C(C)(C(=O)c2cccs2)N1O (stereo not given)	11
121	CCOP(=O)(OCC)C(NC(=O)c1ccc(OC)cc1)C(Cl)(Cl)Cl (stereo not given)	17
122	Cc1ccccc1-n1c(-c2ccoc2)nc2ccccc2c1=O	-3
123	CC1C(C)N1CC(O)Cn1ccnc1[N+](=O)[O-] (stereo not given)	23
124	CN1C(=O)C(=Cc2ccc(N3CCCCCC3)cc2)C(=O)N(C)C1=O	18
125	CN(C)C(=S)SSC(=S)N(C)C	3

# Results in sequence from the entries so far.
# Biofilm kill mix, nos. 106 to 112, in order: 14, 15, 1, 4, 26, 20, 8

# Remaining list, next part
item	Structure	Biofilm kill mix
126	CC(=NCc1cccnc1)c1c(O)n(-c2ccc(Cl)cc2)c(=O)[nH]c1=O	8
127	CCOC(=O)C1(CCc2ccccc2)CCN(Cc2ccc3c(c2)OCCO3)CC1	20
128	Cc1ccc2[nH]c(=S)n(-c3cccnc3)c(=O)c2c1	20
129	Cc1[nH]c2ccccc2c1C(=O)C(=O)N1CC2CC(C1)c1cccc(=O)n1C2 (stereo not given)	16
130	Brc1ccc2c(c1)C(OC1CN3CCC1CC3)c1ccccc1CS2 (stereo not given)	15
131	CCCCc1ncc(CN2CCCC(C(=O)c3ccc(SC)cc3)C2)[nH]1 (stereo not given)	11

# High-throughput results: PubChem, PCMD
